Source: PubChem BioAssay
Bst PK mod: Pyruvate Kinase; 1.2% of 51,000 active; Potency, µM; partly purified Bacillus stearothermophilus pyruvate kinase, luminescence ATP production; ribose 5-phosphate activator present at AC10; in the data active means potency below about 11 µM; inconclusive means mostly about 12 µM to 25 µM; inactive means weaker than that;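 the screen sought inhibitors and activators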;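 note: potency is the fitted concentration of half-maximal effect; scaled between full activation by ribose 5 phosphate and full inhibition by luteolin; about four in five hits inhibit and the cells do not say which; series up to 57 µM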
TsaE inh: qHTS Assay for Inhibitors of YjeE. purified YjeE, fluorescence polarisation of a bound ADP probe. AID 605, 2007. tRNA threonylcarbamoyladenosine biosynthesis protein TsaE (Escherichia coli (strain …. Potency, µM. 0.05% of 71,000 active; active = well fitted falling curve; inconclusive = weaker or top-dose-only fall, or a rising curve; inactive = flat or poorly fitted curve;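 note: top concentration of the series not given in the record; excess ADP was the control for the full effect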
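Purified YjeE (10 uM) with BODIPY Texas Red-labeled ADP probe (2 uM); compounds pin-transferred, 15 min at room temperature. Binding inhibition read as decreased fluorescence polarization; ADP titration as control.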
Numbers without * were called inactive; i = inactive; ? = inconclusive; / = no result given. An excerpt; rates above refer to the full screens.

SMILES | Bst PK mod | TsaE inh
Nc1nnc(SCC(=O)c2ccccc2)s1 | / | i
CC1=CC2=C(OC1N(C)C)c1cccc3cccc(c13)C2=O (stereo not drawn) | / | i
COc1cc(C(=O)Nc2nc(N)n(-c3ccccc3)n2)cc(OC)c1OC | >57 | i
COc1cc2c(cc1NC(C)=O)CCCC2 | / | i
CCCC1C(c2ccccc2)C(C#N)(C#N)C2(C#N)CC1(N)NC2=O (stereo not drawn) | / | i
CCOc1ccc(-c2nnn(CC(=O)c3ccc4c(c3)OCCO4)n2)cc1 | >57 | i
Clc1ccc(NCc2nncn2-c2ccccc2)cc1 | >57 | i
CCOCCCNC(=O)c1ccc(OC(C)=O)cc1 | >57 | i
O=C(Nc1nc2ccccc2n1CCOc1ccc(Cl)cc1)c1ccco1 | / | i
CC1CCN(c2nc3ccccc3nc2C(C#N)C(=O)OC2CCCCC2)CC1 (stereo not drawn) | >57 | i
CC(C(=O)NC1=NCCS1)N1C(=O)c2ccccc2C1=O (stereo not drawn) | >57 | i
CCCCCCCCCCCCCCCC(=O)O[C@H](CC(=O)O)C[N+](C)(C)C | / | i
CCCN(CCC)C(C(=O)Nc1cccc(OC)c1)c1ccccc1 (stereo not drawn) | >57 | i
CCN(CC)c1ccc2cc(C(=O)O)c(=O)oc2c1 | >57 | i
O=C(Nc1cccnc1)c1noc2c1CCCCC2 | i | i
COc1ccccc1NC(=O)CSc1nnc(Cn2nnc(-c3ccccc3)n2)n1-c1ccccc1 | >57 | i
CCOc1cc(N2CCOCC2)c(OCC)cc1NC(=O)COC(=O)c1cc(C)oc1C | >57 | i
CC(c1ccccc1)n1cnc2ccccc21 (stereo not drawn) | / | i
Cn1c(=O)oc2cc(S(=O)(=O)N3CCCC(C(=O)NCc4ccc5c(c4)OCO5)C3)ccc21 (stereo not drawn) | / | i
COCCn1nnnc1SCC(=O)c1ccccc1 | >57 | i
Nc1nc(C(=O)N2CCOCC2)nn1S(=O)(=O)c1ccccc1 | >57 | i
COc1ccccc1CNc1nc(-c2ccc(C(=O)N(C)C)cc2)nc2ccccc12 | / | i
COC(=O)C(O)(CC(=O)Nc1ccc(Cl)cc1F)C(F)(F)F (stereo not drawn) | >57 | i
CC(C)Oc1cccc(C(=O)Nc2ccc(CN3CCOCC3)cc2)c1 | / | i
CS(=O)(=O)N1CCC2(CC1)CN(c1ccccn1)C2 | / | i
Cc1cnc(NC(=O)CSc2nnc(COc3c(C)cccc3C)o2)s1 | / | i
O=C(Nc1ccc2c(c1)OCCO2)c1cccnc1 | >57 | i
O=C(c1csnn1)N1CCC2(CCCN(c3ncccn3)C2)CC1 | / | i
COc1ccccc1N1CCN(C(=O)c2cc3c(-c4ccc(Cl)cc4)nn(C)c3s2)CC1 | / | i
CCC(C)[C@H](NC(=O)NCc1ccc(Cl)cc1)C(=O)OC (stereo partly drawn) | >57 | i
CC(C(=O)Nc1ccc2c(c1)OCO2)N(c1ccc(Cl)cc1)S(C)(=O)=O (stereo not drawn) | >57 | i
COc1ccccc1N1CCN(C(=O)CCc2ccc(S(=O)(=O)NC(C)C)cc2)CC1 | >57 | i
S=c1[nH]nc(-c2ccco2)n1Cc1ccccc1 | i | /
CC(C)OC(=O)c1ccc(OC(=O)c2cccnc2)cc1 | / | i
N#CC1=C(N)C(C#N)(C#N)[C@H](c2ccncc2)[C@H]2CN(C(=O)OCc3ccccc3)CC=C12 | >26 | /
CCc1c(C)nc2cc(-c3cc(OC)cc(OC)c3)nn2c1N1CCCC1 | >57 | i
COc1cc2nc(SCc3c(C)noc3C)n(CCC3=CCCCC3)c(=O)c2cc1OC | >57 | i
N#Cc1ccc(-c2cccnc2)nc1SCC(=O)Nc1sc2c(c1C#N)CCC2 | >26 | /
CN(C)Cc1ccccc1-c1nccc(N(C)C)n1 | / | i
CCOC(=O)CN1C(=O)c2ccccc2C1=O | >57 | i
COc1ccc(NC(=O)N2CCCCC2)cc1 | >11 | i
CCCC(OC(=O)CC1Sc2ccccc2NC1=O)C(=O)NCc1ccco1 (stereo not drawn) | >57 | i
CCCCC(=O)Nc1ccccc1C#N | >57 | i
CCOC(=O)CSc1nc2sc3c(c2c(=O)[nH]1)CC(C)(C)OC3 | >26 | /
O=C(O)CC1(CC(=O)O)Nc2ccccc2SC1=O | / | i
CCOC(=O)Cn1c(=O)oc2cc(S(=O)(=O)N(CCN(C)C)Cc3ccccc3)ccc21 | >57 | i
COc1ccc(CNc2ncnc3ccc(-c4cccc(C#N)c4)cc23)c(OC)c1 | / | i
[O-]/[N+](=C\c1ccncc1)c1ccc(Br)cc1 | / | i
COc1cc(Nc2cc(C)nc3ncnn23)cc(OC)c1OC | / | i
CN=c1nc(-c2ccccc2)n(-c2ccccc2)s1 | / | i
O=C(CN1CCCCC1)Nc1ccc(S(=O)(=O)N2CCCCCC2)cc1 | >57 | i
Nn1c(SCC(=O)Nc2ccc3c(c2)OCCO3)nnc1C(F)(F)F | >26 | /
CCOC(=O)CNS(=O)(=O)c1c(C)noc1C | >57 | i
Cc1c(NC(=O)c2ccc(Cl)c(S(=O)(=O)N3CCOCC3)c2)c(=O)n(-c2ccccc2)n1C | >57 | i
CCn1c(SCC(=O)Nc2cc(NC(C)=O)ccc2OC)nnc1-c1cccnc1 | >57 | i
COC(=O)C1=C(C)NC2=C(C(=O)CCC2)C1c1ccccn1 (stereo not drawn) | / | i
NC(CSS(=O)(=O)O)=N[C@@H]1C[C@H]2CC[C@@H]1C2 | / | i
CN(C)Cc1ccccc1-c1nc(N(C)Cc2ccco2)c2ccccc2n1 | / | i
Cc1c(C(=O)OC2CCCC2)[nH]c2c1C(=O)CC(c1ccco1)C2 (stereo not drawn) | / | i
Cc1ccc(C(=O)Cn2c(C)cc(C)c(C#N)c2=O)cc1 | >57 | i

The list goes on:
SMILES | Bst PK mod | TsaE inh
C=CCNC(=O)COc1ccc(S(=O)(=O)NC2CCCCC2)cc1 | >57 | i
CSc1ccccc1NC(=O)C1CC(c2ccccc2O)=NO1 (stereo not drawn) | >57 | i
O=C(Nc1nc2ccccc2[nH]1)c1ccc(F)cc1 | 3.1* | i
COc1cccc(/C(O)=C2/C(=O)C(=O)N(Cc3ccco3)C2c2ccncc2)c1 (stereo not drawn) | >57 | i
CCCS(=O)(=O)N1CCn2c(nc3ccccc32)C1 | / | i
CCCCOc1ccc(C(=O)Nc2ccc(N3CCN(C(C)=O)CC3)cc2)cc1 | >26 | /
CN=c1sc(C(=O)Nc2cccc(Cl)c2)cc(=O)n1C | >57 | i
Cc1nn(Cc2ccccc2Cl)c(C)c1C(=O)N1CCN(c2ccccc2)CC1 | >57 | i
O=C(Nc1cccc(C(=O)N2CCCCCC2)c1)c1ccco1 | >57 | i
COc1cc2ccccc2cc1C(=O)Nc1ccc(S(=O)(=O)Nc2cc(C)on2)cc1 | >57 | i
c1ccc2ncc(-n3cnnn3)cc2c1 | >57 | i
C=C1CC[C@@H]2O[C@]2(C)CC[C@@H]2[C@H]1CC2(C)C | / | i

For convenience, part of the list above:
SMILES | Bst PK mod | TsaE inh
CCn1c(SCC(=O)Nc2cc(NC(C)=O)ccc2OC)nnc1-c1cccnc1 | >57 | i
COC(=O)C1=C(C)NC2=C(C(=O)CCC2)C1c1ccccn1 (stereo not drawn) | / | i
NC(CSS(=O)(=O)O)=N[C@@H]1C[C@H]2CC[C@@H]1C2 | / | i
CN(C)Cc1ccccc1-c1nc(N(C)Cc2ccco2)c2ccccc2n1 | / | i
Cc1c(C(=O)OC2CCCC2)[nH]c2c1C(=O)CC(c1ccco1)C2 (stereo not drawn) | / | i
Cc1ccc(C(=O)Cn2c(C)cc(C)c(C#N)c2=O)cc1 | >57 | i
C=CCNC(=O)COc1ccc(S(=O)(=O)NC2CCCCC2)cc1 | >57 | i
CSc1ccccc1NC(=O)C1CC(c2ccccc2O)=NO1 (stereo not drawn) | >57 | i
O=C(Nc1nc2ccccc2[nH]1)c1ccc(F)cc1 | 3.1* | i
COc1cccc(/C(O)=C2/C(=O)C(=O)N(Cc3ccco3)C2c2ccncc2)c1 (stereo not drawn) | >57 | i
CCCS(=O)(=O)N1CCn2c(nc3ccccc32)C1 | / | i
CCCCOc1ccc(C(=O)Nc2ccc(N3CCN(C(C)=O)CC3)cc2)cc1 | >26 | /
CN=c1sc(C(=O)Nc2cccc(Cl)c2)cc(=O)n1C | >57 | i
Cc1nn(Cc2ccccc2Cl)c(C)c1C(=O)N1CCN(c2ccccc2)CC1 | >57 | i
O=C(Nc1cccc(C(=O)N2CCCCCC2)c1)c1ccco1 | >57 | i

Next part:
SMILES | Bst PK mod | TsaE inh
COc1ccc2c(c1)c(CC(=O)N1CCOCC1)c(C)n2C(=O)c1ccc(Cl)cc1 | / | i
Cc1cc(C)nc(SCC(=O)NCc2ccco2)n1 | / | i
Cc1nnc(NC(=O)CSc2nnc(-c3ccoc3C)n2CC(C)C)s1 | >57 | i
CCn1c(=O)cc(OCC(=O)NC2CCCCC2)c2ccccc21 | >57 | i
Cc1cc(C)n(-c2ccc(N3CCOCC3)nn2)n1 | / | i
O=C(Oc1ccc(Cl)cc1N1C(=O)CCC1=O)c1ccco1 | >57 | i
CCCCSc1nnc(C)c(=O)[nH]1 | >57 | i
C=C[C@H](N)CCC(=O)O | / | i
COc1ccc(S(=O)(=O)N2CCN(C(=O)c3cccc(Cl)c3)CC2)cc1 | >57 | i
N#Cc1cccc(-c2nc(NCc3cccnc3)c3ccccc3n2)c1 | / | i
CCOc1c(OC)cccc1C1CC(=O)Nc2cc(OC)c(OC)cc21 (stereo not drawn) | / | i
N=C(N)SCCCN | / | i
O=C(O)C1=C/C(=C(/c2ccccc2)c2cc(C(=O)O)c(O)c3ccccc23)c2ccccc2C1=O | / | i
C[C@@H](C(=O)Nc1ccc2ccccc2c1)[C@H]1C[C@]1(C)[C@H](NC(=O)Oc1ccc(F)cc1)c1ccccc1 | / | i
COc1ccc(NC(=O)CCS(=O)(=O)c2ccc(OC)cc2)cc1 | >57 | i
CCc1nn2cc(-c3ccccc3)nc2s1 | 2.4* | i
Cc1cccc(NC(=O)CCN2CC(C)OC(C)C2)c1 (stereo not drawn) | >57 | i
CCOC(=O)c1cccc(NC(=O)CCc2nc(-c3ccc(C)cc3)no2)c1 | >57 | i
CCS(=O)(=O)N1CCN(Cc2ccccc2OC)CC1 | >57 | i
Cc1cccc(N2CCN(C(=O)C3CCN(S(=O)(=O)c4cnc[nH]4)CC3)CC2)c1C | >57 | i
CC1CN(Cc2ccc(C#N)cc2Cl)CC(C)O1 (stereo not drawn) | >57 | i
CC(=O)CCc1c(C)c2cc(C)ccc2[nH]c1=O | >11 | i
CCn1c(SC(=O)NC2CCCCC2)nnc1-c1cccs1 | >57 | i
O=C(CCSCCC(=O)NCc1cccs1)NCc1cccs1 | / | i
O=C(c1ccc(S(=O)(=O)N2CCCCC2)cc1)N1CCN=C1SCc1cccnc1 | / | i
O=C(OCC(=O)N1CCN(C(=O)c2ccco2)CC1)c1ccccc1OCc1ccc(Cl)cc1 | / | i
CCOC(=O)CNC(=O)c1c(C)nn(-c2ccccc2)c1Cl | >57 | i
Cc1ccc(-n2c3c(cc(C(=O)NC4CCSC4=O)c2=O)C(=O)CCC3)cc1 (stereo not drawn) | >57 | i
O=C(CSc1nc(-c2ccccc2)cs1)Nc1nccs1 | >57 | i
CC1=C2C(CCS2(=O)=O)CC2(C1)C(=O)OC(C)(C)OC2=O (stereo not drawn) | >57 | i
C=CCN1C(=O)CN=C1Nc1cccc(C)c1 | >57 | i
COc1ccc(N2CCC(CNS(=O)(=O)c3cccc(C(F)(F)F)c3)C2)cc1 (stereo not drawn) | >57 | i
CCN(Cc1ccncc1)C(=O)c1cccc(S(=O)(=O)N2CCOCC2)c1 | >57 | i
COc1nc(Nc2ccc(OC)c(Cl)c2)nc(OC)n1 | i | i
Cc1cc(Nc2ccc(Cl)cc2)n2nnnc2n1 | / | i
C=CCN(C(=O)CCC(=O)O)C1CC(=O)N(c2ccc(OC)cc2)C1=O (stereo not drawn) | >26 | /
COc1ccc(Cc2nnc(SCC(=O)c3ccc(OC)cc3)o2)cc1 | >57 | i
CCOC(=O)c1c(C)[nH]c(C=Nc2ccccc2)c1O | >57 | i
Cc1nnc(SC(C)C(=O)Nc2ccc(S(=O)(=O)N3CCCCCC3)cc2)s1 (stereo not drawn) | >57 | i
CC(C)OP(C)(=O)CN1CCN(CP(C)(=O)OC(C)C)CC1 (stereo not drawn) | / | i
CC(C)c1ccc2c(c1)CC[C@H]1[C@@](C)(CN)CCC[C@@]21C | / | i
CC(O)Cn1ccccc1=N (stereo not drawn) | >26 | /
O=C(OCc1ccc(F)cc1Cl)c1ccccn1 | >57 | i
Cc1ccc(F)cc1NC(=O)c1c(-c2ccccc2)noc1C | / | i
Cc1ccc(-n2c(=O)cc(N3CCCCCC3)[nH]c2=O)cc1 | / | i
CC1=Nn2c(nnc2-c2ccccc2F)SC1 | >57 | i
CCCS(=O)(=O)N1CCN(S(=O)(=O)c2ccc(F)cc2)CC1 | >57 | i
CCCCCCc1nc2ccccc2c(=O)n1N | >57 | i
C=C(C)c1cccc(C(C)(C)NC(=O)Nc2ccc3[nH]c(=O)[nH]c3c2)c1 | >57 | i
Cc1nc(=O)c(-c2ccccc2)c(C)n1-c1ccccc1O | >57 | i
Cc1ccc(-n2c(=O)[nH]cc(C(=O)N3CCc4ccccc43)c2=O)cc1 | >57 | i
Nc1nc2n(n1)C(c1ccco1)CC(c1ccc(Cl)cc1Cl)N2 (stereo not drawn) | ? | i
CNc1oc(Cc2ccccc2)nc1S(=O)(=O)c1ccccc1 | >57 | i
COCC(=O)Nc1ccccc1C(=O)NC(C)C | >57 | i
CC(C)CNC(=O)O | / | i
COC(=O)C1=C(N)Oc2cc(C)oc(=O)c2C1c1cccnc1 (stereo not drawn) | >57 | i
